# High-throughput results (PubChem)
# ID4 binder = binders of human ID4 protein, primary screen, biochemical, small molecule microarray, single point; DNA-binding protein inhibitor ID-4 (Homo sapiens), P47928; Flag-ID4 binding, fluorescence F/B; calls only; hit rate 1.2% among 31,000;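 active = spot signal over background at p below 0.07 in all four prints; compounds were printed on slides so no solution concentration is given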;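 note: a binder raises fluorescence above local background on the spot; about 2 pmol printed per array spot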
# Target sequence (P47928 whole entry, looked up): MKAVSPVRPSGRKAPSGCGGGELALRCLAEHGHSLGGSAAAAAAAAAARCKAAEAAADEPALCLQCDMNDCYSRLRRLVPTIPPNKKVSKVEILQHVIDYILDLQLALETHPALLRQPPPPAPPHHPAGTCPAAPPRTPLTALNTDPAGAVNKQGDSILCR
# Myc binder = binders of human c-Myc, primary screen, biochemical, small molecule microarray, anti-His fluorescence; His-c-Myc binding; calls only; hit rate 1.5% among 17,000; AID 624141, 2012;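 active = spot fluorescence over background with P-value below 7% in all four replicate spots, showing protein binding; compounds were printed on slides so no solution concentration is given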;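 note: score is binary with 100 for all four spots passing and 0 otherwise; about 2 pmol printed per array spot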
# Target sequence (P01106 whole entry, looked up): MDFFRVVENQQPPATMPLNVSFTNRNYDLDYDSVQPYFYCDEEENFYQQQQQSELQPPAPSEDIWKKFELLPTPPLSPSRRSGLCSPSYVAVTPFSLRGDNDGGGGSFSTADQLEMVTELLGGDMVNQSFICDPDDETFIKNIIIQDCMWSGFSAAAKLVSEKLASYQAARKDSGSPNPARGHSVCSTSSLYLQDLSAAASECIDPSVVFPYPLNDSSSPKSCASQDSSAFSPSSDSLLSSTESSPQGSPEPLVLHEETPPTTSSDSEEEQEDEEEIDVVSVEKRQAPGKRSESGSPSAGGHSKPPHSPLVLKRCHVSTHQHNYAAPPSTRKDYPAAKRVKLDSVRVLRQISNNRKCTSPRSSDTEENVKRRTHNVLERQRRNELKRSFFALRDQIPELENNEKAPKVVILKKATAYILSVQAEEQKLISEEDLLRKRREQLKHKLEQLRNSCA
# STAT3 binder = STAT3 binders, primary screen, biochemical, small molecule microarray, single point, set 2 | Signal transducer and activator of transcription 3 (Homo sapiens), P40763 | His-STAT3 binding, anti-His fluorescence | calls only | hit rate 0.2% among 17,000;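 active = compounds whose four printed spots each show fluorescence over background unusually high for their array block, chance value under 7%; compounds were printed on slides so no solution concentration is given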;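 note: about 2 pmol printed per array spot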
# p53 mut binder = binders of human mutant p53, primary screen, biochemical, small molecule microarray, anti-GST fluorescence. hit rate 0.4% among 17,000. small molecule microarray binding. calls only. AID 624136, 2012;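 active = compounds whose four printed spots each glow above background more than chance allows, each with a p-value under 7%; compounds were printed on slides so no solution concentration is given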;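 note: about 2 pmol printed per array spot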
# Calls only; i = inactive; . = not tested or not shown; + = active, no number. Not all compounds are listed. The share of hits here may be higher or lower than overall.
SMILES,ID4 binder,Myc binder,STAT3 binder,p53 mut binder
C[C@@H]1CN([C@H](C)CO)C(=O)c2cc(NC(=O)NC3CCCCC3)ccc2O[C@H]1CN(C)Cc1ccncc1,i,i,i,i
COc1cccc(C(=O)NC(c2ccccc2OC)c2c(O)ccc3ccccc23)c1 (stereo unspecified),i,i,i,i
Cc1ccc(-n2c(SCC(=O)Nc3ccc(C(N)=O)cc3)nnc2-c2ccc(Cl)cc2)cc1,i,i,i,i
COc1ccc(S(=O)(=O)N(C)CC(=O)Nc2cc(Cl)c(Cl)cc2Cl)cc1,i,i,i,i
C[C@@H]1CCCCO[C@@H](CN(C)S(=O)(=O)c2cn(C)cn2)[C@@H](C)CN([C@H](C)CO)C(=O)c2cc(N(C)C)ccc2O1,.,i,i,i
C[C@H](CO)N1C[C@H](C)[C@@H](CN(C)S(C)(=O)=O)OCCCC[C@H](C)Oc2ccc(NS(=O)(=O)c3ccccc3)cc2C1=O,i,i,i,i
COC(=O)c1ccsc1NC(=O)c1ccsc1NC(=O)c1cccnc1,i,i,i,i
C[C@@H]1CN([C@H](C)CO)C(=O)c2cccc(NS(=O)(=O)c3ccccc3)c2O[C@H]1CN(C)C(=O)Nc1cccc2ccccc12,i,i,i,i
CC1(C)CCC[C@]2(C)C1CC=C(CO)[C@H]2CC/C(=C/CO)CO (stereo partly specified),i,i,i,i
C[C@H](CO)N1C[C@H](C)[C@@H](CN(C)Cc2ccccc2)OCCCC[C@H](C)Oc2ccc(NC(=O)CCCN(C)C)cc2C1=O,i,i,i,i
COc1ccc(S(=O)(=O)N(C)C[C@H]2Oc3ccc(NC(=O)c4ccncc4)cc3C(=O)N([C@H](C)CO)C[C@H]2C)cc1,i,i,i,i
[C-]#[N+]/C(C#N)=C\c1cc(C(C)(C)C)c(O)c(C(C)(C)C)c1,i,i,i,i
COc1ccc(NC(=O)Nc2ccc3c(c2)C(=O)N([C@@H](C)CO)C[C@@H](C)[C@H](CN(C)S(=O)(=O)c2cn(C)cn2)O3)cc1,i,i,i,i
C[C@@H]1CN([C@H](C)CO)C(=O)CCCn2cc(nn2)CO[C@@H]1CN(C)C(=O)Nc1ccc2c(c1)OCO2,i,i,i,i
COC(C)(C)CCCC(C)C/C=C/C(C)=C/C(=O)O (stereo unspecified),i,i,i,i
CCCC(O)C#Cc1cnc2c(c1)C(=O)N([C@H](C)CO)C[C@H](C)[C@H](CN(C)S(=O)(=O)c1cn(C)cn1)O2 (stereo partly specified),i,i,i,i
COc1ccc(CC(=O)Nc2ccc(NC(=O)c3ccco3)cc2)cc1OC,i,i,i,i
C[C@@H]1CN([C@@H](C)CO)C(=O)c2cccc(NC(=O)Nc3ccc(C(F)(F)F)cc3)c2O[C@@H]1CN(C)CC1CC1,i,i,i,i
C[C@@H]1CCCCO[C@@H](CN(C)C(=O)Nc2ccccc2)[C@H](C)CN([C@@H](C)CO)C(=O)c2cc(N(C)C)ccc2O1,i,i,i,i
COc1ccccc1-c1coc2cc(OC)c(OC)c(OC)c2c1=O,i,i,i,i

# An excerpt of these results, as tab-separated lines.
canonical_smiles	ID4 binder	Myc binder	STAT3 binder	p53 mut binder
CC1(C)CCC[C@]2(C)C1CC=C(CO)[C@H]2CC/C(=C/CO)CO (stereo partly specified)	i	i	i	i
C[C@H](CO)N1C[C@H](C)[C@@H](CN(C)Cc2ccccc2)OCCCC[C@H](C)Oc2ccc(NC(=O)CCCN(C)C)cc2C1=O	i	i	i	i
COc1ccc(S(=O)(=O)N(C)C[C@H]2Oc3ccc(NC(=O)c4ccncc4)cc3C(=O)N([C@H](C)CO)C[C@H]2C)cc1	i	i	i	i
[C-]#[N+]/C(C#N)=C\c1cc(C(C)(C)C)c(O)c(C(C)(C)C)c1	i	i	i	i
COc1ccc(NC(=O)Nc2ccc3c(c2)C(=O)N([C@@H](C)CO)C[C@@H](C)[C@H](CN(C)S(=O)(=O)c2cn(C)cn2)O3)cc1	i	i	i	i
C[C@@H]1CN([C@H](C)CO)C(=O)CCCn2cc(nn2)CO[C@@H]1CN(C)C(=O)Nc1ccc2c(c1)OCO2	i	i	i	i
COC(C)(C)CCCC(C)C/C=C/C(C)=C/C(=O)O (stereo unspecified)	i	i	i	i

# (cont.)
SMILES,ID4 binder,Myc binder,STAT3 binder,p53 mut binder
COC(=O)c1c(NC(=O)COc2c(C)cccc2C)sc2c1CCCC2,i,i,i,i
Cc1c(NC(=O)c2ccccc2N(C)S(=O)(=O)c2ccccc2)c(=O)n(-c2ccccc2)n1C,i,i,i,i
Cc1noc(C)c1NC(=O)Nc1ccc2c(c1)C(=O)N([C@@H](C)CO)C[C@@H](C)[C@H](CN(C)C(=O)C1CCCCC1)OCCCC[C@@H](C)O2,i,i,i,i
CCC(Sc1nc(C)cc(C)n1)C(=O)N1c2ccccc2Sc2ccccc21 (stereo unspecified),i,i,i,i
C[C@H](CO)N1C[C@H](C)[C@H](CN(C)Cc2ccccc2)Oc2ncc(C#Cc3ccccc3)cc2C1=O,i,i,i,i
COC(=O)[C@@]1(CCS(=O)(=O)c2ccccc2)N=C(c2ccc(OCCCO)cc2)O[C@H]1c1ccccc1CN=[N+]=[N-],i,i,i,i
Cc1noc(C)c1NC(=O)Nc1ccc2c(c1)CC(=O)N([C@H](C)CO)C[C@@H](C)[C@@H](CN(C)S(=O)(=O)c1ccccc1)O2,i,i,i,i
C[C@@H]1CN([C@H](C)CO)C(=O)c2cc(NC(=O)C3CC3)ccc2O[C@H]1CN(C)Cc1ccc(Cl)c(Cl)c1,i,i,i,i
C[C@H](CO)N1C[C@H](C)[C@H](CN(C)S(C)(=O)=O)Oc2ncc(C#Cc3ccc(C(F)(F)F)cc3)cc2C1=O,i,i,i,i
COCCOC(=O)N1C(=O)[C@@]2(c3cc(C#Cc4ccc(OC)cc4)ccc31)[C@H](c1ccccc1OCCO)N1[C@H](c3ccccc3)[C@H](c3ccccc3)OC(=O)[C@H]1[C@@H]2C(N)=O,.,i,i,i
C[C@@H]1CN([C@H](C)CO)C(=O)CCCn2cc(nn2)CO[C@@H]1CN(C)Cc1ccc2cccnc2c1,i,i,i,i
C=C1C(=O)OC2CC3(C)CCC=C(CO)C3CC12 (stereo unspecified),i,i,i,i
N#CCCn1cc(CO)c(-c2ccc(Cl)cc2)n1,i,i,i,i
CC(C)NC(=O)Nc1ccc2c(c1)C(=O)N([C@@H](C)CO)C[C@H](C)[C@@H](CN(C)Cc1ccc(C(=O)O)cc1)OCCCC[C@@H](C)O2,i,i,i,i
CCOc1ccc(-n2c(C)nnc2SCC(=O)Nc2ccc(Br)cc2F)cc1,i,i,i,i
COc1ccc(OC)c2c(=S)c3ccccc3[nH]c12,i,i,i,i
CC(O)CNc1nc2c(c(=O)n(Cc3ccccc3F)c(=O)n2C)n1C (stereo unspecified),i,i,i,i
COc1ccc(S(=O)(=O)N(C)C[C@H]2Oc3ccc(NC(=O)C4CC4)cc3C(=O)N([C@H](C)CO)C[C@@H]2C)cc1,i,i,i,i
C[C@H](CO)N1C[C@H](C)[C@H](CN(C)C(=O)Nc2ccc(C(F)(F)F)cc2)Oc2c(NC(=O)c3ccncc3)cccc2C1=O,i,i,i,i
COc1ccc(C(N)=O)cc1NC(=O)CC(O)(C(F)(F)F)C(F)(F)F,i,i,i,i
Cc1noc(C)c1NC(=O)N(C)C[C@@H]1OCc2cn(nn2)CCCC(=O)N([C@H](C)CO)C[C@H]1C,i,i,i,i
CNC[C@H]1Oc2ccc(NC(=O)C3CC3)cc2CC(=O)N([C@H](C)CO)C[C@H]1C,i,i,i,i
C[C@@H]1CN([C@H](C)CO)C(=O)c2cccc(N(C)C)c2O[C@H]1CN(C)CC1CC1,i,i,i,i
CC(C)NC(=O)N(C)C[C@@H]1Oc2ccc(NC(=O)CCC(F)(F)F)cc2CC(=O)N([C@H](C)CO)C[C@@H]1C,i,i,i,i
Cc1ccc(N(C(C)C(=O)Nc2ccc(Br)cc2F)S(C)(=O)=O)cc1C (stereo unspecified),i,i,i,i
Cc1noc(C)c1NC(=O)N(C)C[C@@H]1Oc2c(NC(=O)c3cnccn3)cccc2C(=O)N([C@@H](C)CO)C[C@H]1C,i,i,i,i
O=C(NCc1ccc(F)cc1)[C@H]1C[C@H]2C(=O)N3CCC[C@H]3C(=O)N2[C@H]1c1cccc(OCCO)c1,+,i,i,i
C[C@H]1CN([C@@H](C)CO)C(=O)c2cccc(NC(=O)Nc3ccc4c(c3)OCO4)c2O[C@H]1CN(C)C(=O)Nc1ccc(C(F)(F)F)cc1,.,i,i,i
Cc1nnc(SCc2cc(=O)[nH]c(N3CCN(Cc4ccccc4)CC3)n2)s1,i,i,i,i
CC(C)NC(=O)Nc1ccc2c(c1)C(=O)N([C@@H](C)CO)C[C@@H](C)[C@@H](CN(C)Cc1ccccc1)OCCCC[C@H](C)O2,i,i,i,i
CCCn1c(=O)c(C)cn2nc(N)nc12,i,i,i,i
C[C@@H]1CN([C@H](C)CO)C(=O)c2cc(NC(=O)NC3CCCCC3)ccc2O[C@@H]1CN(C)C(=O)NC1CCCCC1,i,i,i,i
C[n+]1cc2c3c(ccc2c2ccc4cc5c(cc4c21)OCO5)OCO3,i,i,i,i
C[C@@H]1CN([C@@H](C)CO)C(=O)Cc2cc(NC(=O)CCN3CCOCC3)ccc2O[C@@H]1CN(C)C,i,i,i,i
C[C@H](CO)N1C[C@H](C)[C@@H](CN(C)CC2CCCCC2)OCCCC[C@H](C)Oc2ccc(NS(=O)(=O)c3cccs3)cc2C1=O,.,i,i,i
COc1ccc(S(=O)(=O)Nc2ccc3c(c2)CC(=O)N([C@@H](C)CO)C[C@H](C)[C@@H](CN(C)Cc2ccc(C(F)(F)F)cc2)O3)cc1,i,i,i,i
C[C@@H]1CN([C@@H](C)CO)C(=O)c2cc(NS(=O)(=O)c3ccccc3)ccc2O[C@@H](C)CCCCO[C@@H]1CN(C)C(=O)CCCN(C)C,i,i,i,i
CCO[C@@H]1OC(C(=O)N2CCOCC2)=C[C@H](c2ccc3c(c2)OCO3)[C@H]1CCCO,i,i,i,i
CC[C@H]1C(=O)CC2C3CCC4C[C@@H](O)[C@]5(O)C[C@]4(CO5)C3CC[C@@]21C (stereo partly specified),i,i,i,i
Cc1nc(SCC(=O)N2CCc3ccccc32)c2c3c(sc2n1)CCCC3,i,i,i,i
CC(C)N1CCN(c2ccc(OC[C@H]3CO[C@](Cn4cncn4)(c4ccc(Cl)cc4Cl)O3)cc2)CC1,i,i,i,i
COc1c(O)cc2c(c1O)C(=O)OC(C)C2Oc1cc2c(c(O)c1OC)C(=O)OC(C)C2O (stereo unspecified),i,i,i,i
CN(CC(=O)O)S(=O)(=O)c1ccc2c(c1)OCCO2,i,i,i,i
C[C@@H]1CN([C@@H](C)CO)C(=O)c2cccc(NS(=O)(=O)c3ccccc3)c2O[C@@H]1CN(C)C(=O)Nc1ccc2c(c1)OCO2,i,i,i,i
C[C@@H]1CN([C@H](C)CO)C(=O)Cc2cc(NC(=O)Cc3ccccc3)ccc2O[C@H]1CN(C)S(=O)(=O)c1cn(C)cn1,i,i,i,i
Cc1noc(C)c1NC(=O)Nc1ccc2c(c1)C(=O)N([C@@H](C)CO)C[C@@H](C)[C@H](CN(C)C(=O)Nc1c(C)noc1C)OCCCC[C@@H](C)O2,i,i,i,i
Cc1noc(C)c1NC(=O)Nc1ccc2c(c1)C(=O)N([C@H](C)CO)C[C@H](C)[C@H](CN(C)CC1CC1)O2,i,i,i,i
C[C@@H]1CN([C@H](C)CO)C(=O)c2cccc(NS(=O)(=O)c3ccc(Cl)cc3)c2O[C@@H]1CN(C)S(=O)(=O)c1cccs1,i,i,i,i
COc1cc2c(cc1-c1coc3c4c(ccc3c1=O)OC(C)(C)C=C4)OCO2,.,i,i,i
CNC[C@H]1Oc2c(NC(=O)c3ccc(-c4nccs4)cc3)cccc2C(=O)N([C@@H](C)CO)C[C@@H]1C,i,i,i,i
# Carrying on:
SMILES,ID4 binder,Myc binder,STAT3 binder,p53 mut binder
C[C@@H]1CN([C@@H](C)CO)C(=O)c2cccc(NS(C)(=O)=O)c2O[C@H]1CN(C)C(=O)Nc1ccc(C(F)(F)F)cc1,i,i,i,i
O=c1nc2ccccc2c2n1CC(CN1CCN(c3ccccc3)CC1)N2 (stereo unspecified),i,i,i,i
COC(=O)c1ccc([C@H]2C=C(C(=O)O)O[C@@H](OCc3ccc(CO)cc3)C2)cc1,.,i,i,i
COc1ccc(CN2C(=O)C(O)(CC(=O)c3c(C)n[nH]c3C)c3ccccc32)cc1OC (stereo unspecified),i,i,i,i
C[C@H](CO)N1C[C@H](C)[C@H](CN(C)CC2CC2)Oc2ccc(NC(=O)Nc3ccccc3)cc2CC1=O,i,i,i,i
CNC[C@H]1Oc2ccc(NC(=O)Nc3ccccc3)cc2CC(=O)N([C@H](C)CO)C[C@H]1C,i,i,i,i
CC(C)NC(=O)N(C)C[C@H]1Oc2ccc(NC(=O)CCCCCC(=O)Nc3ccccc3N)cc2CC(=O)N([C@H](C)CO)C[C@@H]1C,.,i,i,i
C[C@@H]1CN([C@@H](C)CO)C(=O)c2cc(NC(=O)c3ccncc3)ccc2O[C@@H](C)CCCCO[C@H]1CN(C)S(=O)(=O)c1ccc(F)cc1,i,i,i,i
